VDR inhibitor: blocks the human vitamin D receptor | AID 504847 | 400,000 tested, 0.93% active | VDR-SRC2-3 peptide fluorescence polarization, 2 h | Potency, µM, without a hit: max response, negative = inhibition, actives largely listed as inhibitors; active = well fitted inhibition curve with a large enough effect; inconclusive = small, poorly fitted or top-dose-only effect, or another doubt; inactive = no such curve, though single readings can be large or run the other way; also: series mostly up to about 120 µM
Target sequence (P11473 whole entry, looked up): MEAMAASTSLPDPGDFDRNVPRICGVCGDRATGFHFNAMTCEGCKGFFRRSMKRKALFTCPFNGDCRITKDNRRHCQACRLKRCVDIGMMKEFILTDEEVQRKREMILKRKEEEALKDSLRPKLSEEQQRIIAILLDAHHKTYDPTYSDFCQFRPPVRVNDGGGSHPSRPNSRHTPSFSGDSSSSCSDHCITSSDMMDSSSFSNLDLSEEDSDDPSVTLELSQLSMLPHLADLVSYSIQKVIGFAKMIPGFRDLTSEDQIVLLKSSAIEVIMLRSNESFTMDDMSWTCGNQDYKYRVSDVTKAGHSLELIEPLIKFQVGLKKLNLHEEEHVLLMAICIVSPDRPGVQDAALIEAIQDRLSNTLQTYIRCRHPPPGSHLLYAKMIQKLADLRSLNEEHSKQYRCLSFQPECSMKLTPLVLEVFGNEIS
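The screen uses fluorescence polarization to detect compounds that interfere with recruitment of the SRC2-3 coactivator peptide to VDR; plates are read after 2 h at room temperature.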
* marks the source's active call; other numbers are inactive results; ? = inconclusive; & = joins results of further samples. % is scaled to controls: 0 for no effect and ±100 for the full control effect; potency is read from the fitted curve at half-maximal effect. Not all compounds are listed. The share of hits here may be higher or lower than overall.

Compound	VDR inhibitor
COc1ccc(/C=N/NC(=O)c2ccco2)cc1Cn1nc(C)c([N+](=O)[O-])c1C	7.3%
COc1ccc(-c2csc(NC(=O)C(CC(=O)O)N3CCOCC3)n2)cc1 (stereo not drawn)	13.3%
COc1ccc(N2CCN(C(=O)COc3ccccc3)CC2)cc1	13.2%
N#Cc1nc(COc2ccc(-c3ccccc3)cc2)oc1NCc1cccnc1	15.5%
O=C(NCCCn1ccnc1)c1nc(Cn2cc([N+](=O)[O-])cn2)no1	-15.6%
CCN(Cc1cccc(F)c1)C(=O)c1ccc2ccccc2n1	-4.8%
C[C@H](CO)N1C[C@H](C)[C@@H](CN(C)S(=O)(=O)c2cn(C)cn2)Oc2c(NC(=O)Nc3ccc(C(F)(F)F)cc3)cccc2C1=O	-1.1%
Cc1ccc(NC(=S)NCCc2ccc(F)cc2)c(C)c1	-29.0%
O=C(c1ccc2nc(N3CCCCC3)sc2c1)N1CCN(c2ccccn2)CC1	-18.9%
Cc1ccc(/C=N/c2sc3c(c2C#N)CCC3)o1	-2.9%
CCc1ccc(NC(=O)N2CCCCCC2)cc1	0.4%
Cc1ccc(NC(=O)C2CC(=O)N(c3ccc4c(c3)OCCO4)C2)nc1 (stereo not drawn)	-11.8%
COc1ccc(CN2C(=O)c3ccccc3C2=O)cc1C(=O)N(C)CC(=O)Nc1c(C)cccc1C	-9.6%
CCCc1cc(=O)[nH]c2nnc(SCC(=O)Nc3cccc(NC(C)=O)c3)n12	-10.0%
COC(=O)C(NC(C)=O)(Nc1nc2ccc(S(C)(=O)=O)cc2s1)C(F)(F)F (stereo not drawn)	5.4%

Further compounds.
Compound	VDR inhibitor
COc1cc(CC(=O)Nc2nccs2)cc(OC)c1OC	8.2%
CCOC(=O)c1c(C)[nH]c(C(=O)CSc2nccc(C)n2)c1C	3.6%
Cc1ccccc1NC(=O)c1ccc(OCc2c(C)noc2C)cc1	-8.7%
COc1ccc(C(=O)c2sc3nc(C)cc(-c4cccs4)c3c2N)cc1OC	3.8%
COC(=O)Nc1ccccc1C(=O)N1CCCCC1	-3.9%
CC(C)OCP(=O)(c1ccccc1)c1ccccc1	-1.2%
Cc1cc(C)c(NC(=O)CC(C)(C)C)c(Cl)c1	3.0%
Cc1ccc(S(=O)(=O)N2CCC(C(=O)NC3CCCC3)CC2)cc1Cl	-15.7%
COc1ccccc1C(=O)N/C(=C\c1cn(C)c2ccccc12)C(=O)NCCCn1ccnc1	3.6%
CN(C)c1ccc(CNC(=O)Cn2c(-c3cccs3)cc3cc(Cl)ccc32)cc1	13.6%
CCOC(=O)N1CCN(C(=O)c2cnn(-c3ccccc3)c2NC(=O)c2ccccc2F)CC1	-5.8%
CC1CCCCC1NC(=O)CO/N=C/c1ccc(OC(F)F)cc1 (stereo not drawn)	5.9%
CC1(C)O[C@@H]2[C@H](O1)[C@@H](COS(=O)(=O)O)O[C@H]2n1cnc2c(=O)[nH]cnc21	19.5%
CCOc1ccc(-c2oc3ccccc3c(=O)c2O)cc1OCC	-0.5%
Cn1ccc(NS(=O)(=O)c2cc(Br)ccc2Br)n1	7.5%

New compounds follow
Compound	VDR inhibitor
CCCCN1C(=O)C2C3C=CC(C2C1=O)C1C2C(=O)N(CCCC)C(=O)C2C31 (stereo not drawn)	-19.0%
COC(=O)CCCNC(=O)CC1C(=O)NCCN1Cc1ccoc1 (stereo not drawn)	8.2%
CCOc1ncccc1C(=O)NNC(=O)c1csc(N2CCOCC2)n1	-3.0%
COc1ccc(CCNC(=O)CSCc2nc(-c3ccc(OC)c(OC)c3)oc2C)cc1OC	-9.5%
CCOC(=O)C1=C(C)N(c2ccc(C)c(C)c2)C(=O)/C1=C\c1ccco1	-6.3%
O=C1c2cccc3c([N+](=O)[O-])ccc(c23)C(=O)N1CCc1ccccn1	-7.1%
COc1ccc(OCCCC(=O)Nc2ccc3c(c2)OCCO3)cc1	0.9%
CCCOc1ccc(C(=O)NCCO)cc1	-4.8%
COc1ccccc1C(=O)OCc1ccc2sc(C)nc2c1	3.4%
COc1ccc(S(=O)(=O)N2CCCC2CNC(=O)C(=O)NCc2ccc3c(c2)OCO3)cc1 (stereo not drawn)	14.2%
O=C(NCc1ccc(F)cc1)c1ccc2c(c1)S(=O)(=O)c1ccccc1C2=O	-1.4%
CC(C)[C@@H](CC(=O)N[C@@H]1CCCC[C@H]1C(=O)N[C@H](CC(=O)N[C@@H](CCC(=O)O)CC(=O)O)Cc1ccccc1)NC(=O)C[C@H](Cc1ccccc1)NC(=O)[C@@H]1CCCC[C@H]1N	-1.4%
O=C(Nc1ccccc1Cl)C1CCN(c2nc3ccccc3nc2C(F)(F)F)CC1	0.9%
CCOC(=O)Cn1c(=O)n(CC2CCCO2)c2nc(-c3ccc(CC)cc3)nc(C(N)=O)c21 (stereo not drawn)	5.0%
Cc1ccc(CNC(=O)C2CCC(=O)N(Cc3ccc(Cl)cc3)C2)cc1F (stereo not drawn)	-8.1%

Structures listed so far with two or more sulfur atoms, in the order listed:
Compound	VDR inhibitor
COC(=O)C(NC(C)=O)(Nc1nc2ccc(S(C)(=O)=O)cc2s1)C(F)(F)F (stereo not drawn)	5.4%
COc1ccc(C(=O)c2sc3nc(C)cc(-c4cccs4)c3c2N)cc1OC	3.8%

(more compounds)
Compound	VDR inhibitor
COCC(=O)N1CCC2(CC1)CN(Cc1ccccc1OC)C2	-2.0%
CC(=O)c1ccc(S(=O)(=O)NC2CC(=O)N(c3ccc(C)cc3)C2)cc1 (stereo not drawn)	-16.6%
CCCc1nc2ccccc2n1CC(O)COc1ccc(C(=O)OC)cc1 (stereo not drawn)	-10.5%
CC(C)(C)c1ccc(OCCCCCCN2CCNCC2)cc1	-13.4%
O=C(COC(=O)CN1C(=O)c2cccc([N+](=O)[O-])c2C1=O)NC1CCS(=O)(=O)C1 (stereo not drawn)	4.0%
COC(=O)c1nnn(-c2cc(Cl)cc(Cl)c2)c1C(=O)OC	0.6%
CCOCCOC(=O)c1ccc(NC(=O)C2COc3ccccc3O2)cc1 (stereo not drawn)	13.8%
Cc1cccc(-n2ncc(C(=O)NC3CCCC3)c2C2CCN(C(=O)OC(C)(C)C)CC2)c1	-8.0%
Cc1nc(N)nc(-c2ccccc2O)n1	14.1%
Cc1nc2cc(N=NC3=C(O)CCCC3=O)ccc2s1	-15.4%
COc1ccc(C)cc1S(=O)(=O)Nc1ccc2c(c1)OCO2	3.6%
NC(=O)[C@@H]1CC2(CC(c3cccc(NC(=O)[C@@H]4CCC(=O)N4)c3)=NO2)CN1C(=O)Cc1ccc([N+](=O)[O-])cc1 (stereo partly drawn)	?
COc1ccc2cc(-c3[nH]ncc3CN3C[C@@H]4CCC[C@H]3C4)ccc2c1	?
CC(Sc1nc(NC(C)(C)C)nc(N(C)C)n1)C(=O)Nc1ccccc1 (stereo not drawn)	-0.6%
CCN(C(=O)COC(=O)CNC(=O)C1CCCCC1)c1ccccc1	-10.5%

A few values from the results shown:
Result for `CCCc1nc2ccccc2n1CC(O)COc1ccc(C(=O)OC)cc1` (stereo not drawn) under VDR inhibitor: -10.5%
Result for `CC(Sc1nc(NC(C)(C)C)nc(N(C)C)n1)C(=O)Nc1ccccc1` (stereo not drawn) under VDR inhibitor: -0.6%
Result for `CC(C)(C)c1ccc(OCCCCCCN2CCNCC2)cc1` under VDR inhibitor: -13.4%
Result for `Cc1nc(N)nc(-c2ccccc2O)n1` under VDR inhibitor: 14.1%
Result for `O=C(COC(=O)CN1C(=O)c2cccc([N+](=O)[O-])c2C1=O)NC1CCS(=O)(=O)C1` (stereo not drawn) under VDR inhibitor: 4.0%

New compounds follow:
Compound	VDR inhibitor
COc1ccc(OC)c(NC(=O)N2CCN(Cc3nc4ccc(C)cc4o3)CC2)c1	12.4%
Cc1nc(CS(=O)(=O)c2ccccc2)cc(N2CCOCC2)n1	-25.7%
C#CC(CC)(CC)NC(=O)c1ccc(Br)s1	15.8%
O=C(COC(=O)CCCOc1ccc(Cl)cc1Cl)Nc1cccc(Cl)c1	-13.9%
O=C(c1ccccc1)N1CCN(C2CC3CCC2C3)CC1 (stereo not drawn)	13.3%
C/C(Nc1cccc(F)c1)=C(/C#N)C(N)=O	-5.4%
O=c1cc2nc(-c3ccccc3F)nc(SCc3ccc(Br)cc3)n2[nH]1	-2.6%
COc1ccc(S(=O)(=O)NCCc2ccc(F)cc2)cc1	-2.0%
Cc1nc(-c2nnc(SCC(=O)Nc3cc(Cl)cc(Cl)c3)n2C)cs1	-2.1%
COc1ccc(CCNC(=O)c2cnc3sc(N4CCCC4)nn3c2=O)cc1OC	-1.6%
CC1CC(C)CN(C(=O)C(C)N(C)CC(=O)Nc2ccc(F)cc2)C1 (stereo not drawn)	16.0%
O=C(NCC(c1cccs1)N1CCOCC1)c1cc(S(=O)(=O)N2CCOCC2)c(Cl)cc1Cl (stereo not drawn)	-15.8%
O=C(c1noc2c1CCCCC2)N1CCN(C(c2ccccc2)c2ccccc2)CC1	-5.8%
CC(=O)Nc1ccc(S(=O)(=O)N2CCN=C2C)cc1	15.5%
COc1cc(/C=N/NC(=O)CNc2n[nH]c(=O)[nH]c2=O)ccc1O	-0.3%

Next part:
Compound	VDR inhibitor
COc1cccc(C(=O)CSc2nccn2C)c1	-8.1%
CCCN(Cc1ccccc1)C(=S)Nc1cccc(C(F)(F)F)c1	-7.9%
O=C(NCCc1ccccc1)C1CCN(c2ncccn2)CC1	6.3%
COc1ccccc1N1CCN(C(c2ccccc2)c2nnnn2CCc2ccccc2)CC1 (stereo not drawn)	-5.1%
Cc1ccc(N(CC(=O)NCc2ccc(F)cc2)S(=O)(=O)c2cccs2)cc1	3.0%
CCn1c(=O)c([N+](=O)[O-])c(N2CCN(Cc3ccc4c(c3)OCO4)CC2)c2ccccc21	-29.4%
COc1ccc(OC)c2c(N3CC(C)OC(C)C3)cc(C(F)(F)F)nc12 (stereo not drawn)	-8.2%
Cc1cc(O)c2c(C)c(CC(=O)NCc3ccccc3Cl)c(=O)oc2c1	16.1%
Cc1cc(C(=O)N/N=C/c2cccnc2)c2ccccc2n1	-18.2%
Cc1cc(NC(=O)COC(=O)C2CCCN2C(=O)c2cccs2)no1 (stereo not drawn)	14.7%
O=C(NNC(=O)c1cccc(S(=O)(=O)N2CCN(c3ccccc3)CC2)c1)c1ccc(Cl)cc1	-2.7%
Fc1cccc(C2NC(=S)NC3=C2N2CCC3CC2)c1 (stereo not drawn)	2.3%
CCCOc1ccccc1C(=O)NCCCC(=O)O	-0.8%
CC(C)C(NC(=O)C(C)N1C(=O)c2ccccc2C1=O)c1ccccc1 (stereo not drawn)	-9.3%
CC1CN(Cc2ccco2)C(=S)NC1=O (stereo not drawn)	4.9%

Later entries.
Compound	VDR inhibitor
Cc1cc(C)c2c(c1)/C(=c1/sc3n(c1=O)CN(c1ccccc1)CN=3)C(=O)N2	-10.5%
Cc1ccc(C(=O)NC2(C(Cl)Cl)N=C(c3ccccc3)N=C2N)cc1 (stereo not drawn)	-9.9%
Cc1ccccc1NS(=O)(=O)c1ccc(C(=O)N2CCCCCC2)cc1	2.9%
Nn1c(SCC(=O)N2CCCc3ccccc32)nncc1=O	5.8%
CCCCC[C@H](O)/C=C/[C@@H]1[C@@H](C/C=C\CCCC(=O)O)[C@H](O)C[C@H]1O	1.6%&0.6%
CSc1ccc(S(=O)(=O)NC(C)c2ccccc2)cc1 (stereo not drawn)	28.4%
Cc1ccc(C(=O)NCCCN2CCN(CCCNC(=O)c3ccc(C)cc3)CC2)cc1	1.6%
Cc1cc(NC(=O)c2ccc(Cn3nc(C)c(Br)c3C)o2)no1	5.1%
O=C(O)CCCNC(=O)Cc1ccccc1	-7.2%
CCOc1ccccc1/C=C/c1nc2ccccc2[nH]c1=O	?
CCC(=O)Nc1ccccc1C(=O)OCc1cc(=O)n2cc(C)sc2n1	12.9%
O=S(=O)(c1ccccc1F)N1CCN(Cc2nc3ccccc3[nH]2)CC1	-14.2%
O=C(O)c1ccc(/C=N/N2CCN(c3ccccc3)CC2)cc1	9.6%
C=CCc1ccc2oc(C(=O)OCC)cc(=O)c2c1O	-4.3%
O=C(Cc1ccc(NC(=O)C2CCN(C(=O)c3ccccc3)CC2)cc1)Nc1cccc(C(=O)N2CCCC2)c1	-29.0%

New compounds follow:
Compound	VDR inhibitor
COc1ccc(-c2nonc2NC(=O)c2oc3ccc(F)cc3c2C)cc1OC	-8.1%
CCOc1ccc(Br)cc1S(=O)(=O)Nc1ccc(Cl)c(S(=O)(=O)N(CC)c2ccccc2)c1	-10.1%
O=C(c1ccccc1)c1ccc(N2CCOCC2)c(F)c1	-7.9%
Cc1ccc(Nc2ccc(N3CCN(c4ccc([N+](=O)[O-])cc4)CC3)nn2)cc1	-0.2%
Cc1ccc(C)c(S(=O)(=O)NCC(c2ccco2)S(=O)(=O)c2ccc(F)cc2)c1 (stereo not drawn)	-4.4%
O=C(CSc1nc2c([nH]c3ccccc32)c(=O)n1-c1ccc(F)cc1)NCc1ccccc1	-6.6%
C=CCc1c(Cl)nc(C)nc1NCc1ccccc1	-2.3%
CC(/C=C/c1ccco1)=N/NC(=O)OC(C)(C)C	?
Cc1ccc(F)cc1NC(=O)CSc1n[nH]c(N)n1	-8.1%
Cc1cccc(C(=O)OCC(=O)Nc2c(C)n(C)n(-c3ccccc3)c2=O)c1O	-7.8%
N#Cc1ccc(C23CC4(C2)[C@H](CN(Cc2ccc(-c5ccccc5)cc2)[C@@H]4c2ccccc2)C3c2ccccc2)cc1 (stereo partly drawn)	-16.1%
CC(=O)c1cccc(OCC(O)CNCC2CCCCC2)c1 (stereo not drawn)	8.8%
COc1ccc(S(=O)(=O)Nc2ccccc2-c2nnn(CC(=O)Nc3ccccc3OC)n2)cc1	-10.3%
CCN1C(=O)[C@H]2[C@@H](c3ccc(-c4ccc(Cl)c(Cl)c4)c(OC)c3)N3CCCC[C@@]3(C(=O)OC)[C@H]2C1=O	-0.3%
O=S(=O)(Nc1cccc(S(=O)(=O)N2CCCC2)c1)c1ccc(Cl)s1	10.2%
